Screening results deposited in PubChem by National Center for Advancing Translational Sciences (NCATS).
NS1 inh – influenza NS1 inhibition; S. cerevisiae slowed by influenza A NS1, growth recovery by OD600; AID 2326; Potency, µM (titrated, usually from 46.1 µM), inactives show top-dose activity, positive = more growth; actives 0.4% (n = 270,000); note: actives are rising curves; nearly all actives have a fitted effect of over 50% in size
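A cell-based growth assay was used: compounds that relieve NS1-induced slow growth of budding yeast raise OD600. Assay medium was yeast nitrogen base with ammonium sulphate and -URA supplement, pH 6.0, with 2% galactose.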
SARS PLpro yeast – inhibitors of SARS-CoV papain-like protease in yeast; Potency, µM (titrated, usually from 32.9 µM), without a hit: top-dose activity, positive = growth rescue; AID 485353; actives 0.19% (n = 330,000); S. cerevisiae expressing SARS-CoV PLpro, growth rescue; control for the full effect not named in the record; note: 0% is about no effect; nearly all actives have a fitted effect of over 55% in size; growth read by luminescence after 48 h
* hit, by the source's call; ? = inconclusive; . = not tested or not shown; [ ] = remark or other dose. Calls come from the whole dose curve; as a rule, active means well fitted rising curve with a large enough effect; inconclusive means small, poorly fitted or top-dose-only effect; inactive means no such curve, though single readings can be large or run the other way. Potency is the fitted concentration of half-maximal effect. Some of the compounds tested. The share of hits here may be higher or lower than overall.

SMILES	NS1 inh	SARS PLpro yeast
Cn1c(Cc2ccc3c(c2)OCO3)nnc1SCC(=O)NC1CCCC1	.	1.7%
COCCCNC(=O)C1CCC(CNS(=O)(=O)c2ccc(C)cc2)CC1 (stereo not given)	.	-4.7%
CCN(CC)CCn1c(SCC(=O)Nc2ccc(F)cc2)nc2c(sc3ccccc32)c1=O	.	-2.4%
O=S(=O)(NC[C@@H]1CCC[C@H](CNS(=O)(=O)c2c(F)cccc2F)C1)c1ccc2c(c1)OCCO2	.	3.2%
COc1ccccc1N1CCN(C2CCN(C3CCC(c4ccccc4)CC3)CC2)CC1 (stereo not given)	.	-4.3%
O=C1NC(Cc2ccccc2)c2nc3ccc(Cl)cc3c(=O)n2-c2ccc(Cl)cc21 (stereo not given)	.	-0.3%
Cc1cc(Cl)ccc1OCC(O)CN1C(C)CCCC1C (stereo not given)	.	3.4%
CC(C)[C@@]1(c2ccccc2)ON(c2ccccc2C(F)(F)F)C1=O	.	3.7%
Cc1ccc(S(=O)(=O)CCC(=O)Nc2ccc(S(=O)(=O)N(C)C)cc2)cc1	.	0.7%
O=C(CN1C(=O)S/C(=C\c2ccc(-c3cc(C(=O)O)ccc3Cl)o2)C1=O)Nc1ccc2c(c1)OCO2	26.2%	-8.2%
CCOC(=O)C1=C(C)N=c2s/c(=C/c3ccc(OCC(=O)O)cc3)c(=O)n2C1c1ccc(SC)cc1 (stereo not given)	?	3.6%
C/C=C\C=C/C(=O)Nc1cccc(C2=NOC3(C2)C[C@@H](C(N)=O)N(C(=O)c2ccccc2)C3)c1 (stereo not given in full)	1µM*	0.8%
CC12OC1C1(O)CCCC1=CC2=O (stereo not given)	-0.4%	1.6%
O=C(O)C[C@@H]1C(=O)O[C@@H]2C(COC(=O)c3cc(O)c(O)c(O)c3)O[C@@H](OC(=O)c3cc(O)c(O)c(O)c3)[C@@H](OC(=O)c3cc(O)c(O)c4c3[C@H]1[C@H](O)C(=O)O4)[C@H]2OC(=O)c1cc(O)c(O)c(O)c1 (stereo not given in full)	-5.7%	1.41µM*
COc1ccc(C=C2c3ccccc3C(=O)c3ccccc32)c(OC)c1	12.1%	-0.4%
Cc1ccc(-n2[nH]c(C)c(/C=N/NC(=O)c3ccc([N+](=O)[O-])cc3)c2=O)c(C)c1	23.9%	?
CCCCn1c(=N)n(CC(=O)c2ccc(OC)cc2)c2ccccc21	-1.2%	-0.4%
COc1ccccc1Nc1nn2c(=O)c3ccc(C(=O)NCc4cccnc4)cc3nc2s1	-3.1%	5.3%
O=C(OCCCOC(=O)c1ccccc1O)c1ccccc1O	-6.5%	?
O=C(Nc1ccc(NC(=O)c2ccncc2)cc1)c1ccncc1	-2.8%	-0.2%
Fc1ccccc1Cn1cnc(NC(=S)NCCc2ccccc2)n1	4.5%	1.4%
O=C(CCCN1C(=O)/C(=C/c2cccs2)SC1=S)Nc1ccc(O)c(C(=O)O)c1	2.4%	0.0%
O=c1[nH][nH]c(=S)n1-c1ccccc1C(F)(F)F	3.2%	0.9%
CCn1c2ccccc2n2c(=O)c(=O)n(CC(=O)N3CCN(c4ccccc4OC)CC3)nc12	1.3%	-1.1%
CCOc1ccc(C(=O)NC2=NCCS2)cc1	0.4%	-0.9%

In the list so far, these have an aryl methoxy group.
SMILES	NS1 inh	SARS PLpro yeast
COc1ccccc1N1CCN(C2CCN(C3CCC(c4ccccc4)CC3)CC2)CC1 (stereo not given)	.	-4.3%
COc1ccc(C=C2c3ccccc3C(=O)c3ccccc32)c(OC)c1	12.1%	-0.4%
CCCCn1c(=N)n(CC(=O)c2ccc(OC)cc2)c2ccccc21	-1.2%	-0.4%
COc1ccccc1Nc1nn2c(=O)c3ccc(C(=O)NCc4cccnc4)cc3nc2s1	-3.1%	5.3%
CCn1c2ccccc2n2c(=O)c(=O)n(CC(=O)N3CCN(c4ccccc4OC)CC3)nc12	1.3%	-1.1%

Further entries follow.
SMILES	NS1 inh	SARS PLpro yeast
CCc1cccc(CC)c1NC(=O)CN1CCc2cc(OC)c(OC)cc2C1	-4.3%	2.2%
O=C(/C=C/c1ccc(O)c(O)c1)O[C@H](Cc1ccc(O)c(O)c1)C(=O)O	5.62µM*	10.8%
CCCCC(=O)Nc1ccccc1C(C)C	0.3%	0.1%
C#CCOCCOCCOCCNc1nc(N2CCN(C(=O)[C@H](CCCCN)n3cc(C(N)CO)nn3)CC2)nc(N2CCN(C(=O)[C@H](CCC(=O)O)n3cc(C(N)Cc4ccc(O)cc4)nn3)CC2)n1 (stereo not given in full)	6.2%	-1.5%
Cc1nn(C)c(C(=O)Nc2cccc(Nc3ccccc3)c2)c1[N+](=O)[O-]	-30.8%	-16.9%
COc1ccc(NC(=O)COC(=O)c2c(F)cccc2Cl)cc1OC	-0.4%	0.9%
CC[C@@H]1CC=C[C@H]2[C@H]1C(=O)N(Cc1ccccc1)[C@H]2c1cc(C)ccc1F	-66.6%	-17.3%
CC1=C(C#N)C(=O)N(C2CCS(=O)(=O)C2)C(=O)/C1=C\c1ccco1 (stereo not given)	18.0%	2.3%
Cn1c(=O)[nH]c(=O)c2c1nc(Br)n2C/C=N/NC(N)=S	-1.5%	19.7%
COc1ccc([C@]23Cc4cc(OC)c(OC)cc4C(O2)c2c(cc(-c4ccccc4)oc2=O)O3)cc1	19.6%	-4.9%[6.58 µM]
CCCOc1ccc(/C=N/NC(=O)c2c(-c3ccccc3)noc2C)cc1OC	-1.1%	-8.3%
CCCC(=O)Nc1cccc(C(=O)Nc2ccccc2OCC)c1	-6.9%	-0.1%
C/C=C/C(=O)Nc1cccc(C2=NOC3(C2)C[C@H](C(N)=O)N(C(=O)c2ccccc2C(=O)c2ccccc2)C3)c1 (stereo not given in full)	-6.3%	0.1%
COc1ccc(S(=O)(=O)N2CCOCC2)cc1NC(=O)CSc1nnc2ccccn12	3.8%	1.8%
CC(C)CNC(=O)NC(=O)COC(=O)c1cc([N+](=O)[O-])ccc1NCc1ccccc1Cl	7.7%	0.1%
COC/C=C/C1=CC2=CC(=O)C(C)(OC(=O)c3cnc4ccccc4n3)C(=O)C2=CN1c1ccc(CO)cc1 (stereo not given)	7.6%	0.7%
COc1ccc([C@]23Cc4cc(OC)c(OC)cc4C(O2)C2=C(CC4(CCCCC4)OC2=O)O3)cc1	23.4%	-0.4%[6.58 µM]
CC(=O)Oc1ccc(C23CC4CC(CC(C4)C2)C3)cc1C(=O)O	-6.6%	-4.8%
O=C(Cc1ccc(Cl)cc1)NCc1nc(-c2ccccc2)no1	-6.6%	-0.3%
Cc1ccc(NC(=O)COc2ccccc2C(=O)NCCN(C)C)cc1	8.3%	0.5%
CCc1ccc(NC(=O)c2cc(Br)ccc2Br)cc1	-0.9%	0.7%
C/C(=N\N1CCCCCC1)c1c(O)n(C)c(=O)n(C)c1=O	-45.8%	-0.1%
CCCCC[C@]12Cc3ccccc3C(O1)c1c(cc(C)oc1=O)O2	0.4%	-4.3%[6.58 µM]
CCOC(=O)c1ccc(NC(=O)c2nc[nH]c2C(=O)N2CCN(C(=O)OC(C)(C)C)CC2)cc1	-2.4%	1.9%
COc1cc(CC(NC(C)=O)C(=O)NC2CCN(c3c4c(nc5ncnn35)CCC4)CC2)cc(OC)c1 (stereo not given)	5.1%	-0.4%
New compounds follow.
SMILES	NS1 inh	SARS PLpro yeast
O=C(Nc1ccc(Cl)c([N+](=O)[O-])c1)Nc1nc2ccccc2s1	6.4%	0.7%
COc1ccc(CCNC(=O)c2ccc3c(c2)NC(=O)C(CSCc2cc(C)ccc2C)N3)cc1OC (stereo not given)	15.2%	-20.4%
O=C1C=C(O)c2c(O)cccc2C1=O	-30.8%	-0.8%
O=Nc1c(-c2cccc([N+](=O)[O-])c2)nc2ncccn12	-74.9%	-7.0%
C(=N\Nc1nc(Nc2ccccc2)nc(N2CCCCC2)n1)/c1ccco1	-0.9%	-4.1%
COc1ccc(C)cc1Nc1n[n+](C)c(-c2ccc(C(=O)O)cc2)s1	4.8%	-0.5%
CCC(C(=O)O)n1nnc(-c2ccc(OCc3ccccc3)c(OC)c2)n1 (stereo not given)	18.6%	9.2%
O=C1C=CC(=O)N1c1ccc(I)cc1Cl	6.0%	-1.3%
N#Cc1c(-c2ccncc2)c2c([nH]c1=O)-c1ccccc1OC2	9.4%	0.9%
O=C(COc1ccccc1)Nc1ccc(Cl)cc1Cl	-6.6%	-1.9%
CCCCn1nnc(NC(=O)c2ccc(-c3cccc([N+](=O)[O-])c3)o2)n1	-1.3%	-0.6%
Cc1ccc(N2C(=O)N(CC(=O)C(C)(C)C)c3ccccc3S2(=O)=O)cc1	-11.4%	2.1%
CC1C2(C)OCC(C#N)(C(=N)O2)C1(C#N)C#N (stereo not given)	-3.3%	1.1%
COc1ccc(CC(=O)Nc2cccc(C(=O)Nc3cccc(C)c3)c2)cc1	-3.2%	0.2%
NC(=S)NNC(=O)c1cccc(Br)c1	5.3%	-0.5%
O=C(c1cc(-c2ccncc2)nc2c(Cl)cccc12)N1CCN(c2ccccc2F)CC1	6.0%	20.3%
COc1ccc(S(=O)(=O)n2nc(C)c(S(=O)(=O)N3CCOCC3)c2C)cc1OC	0.8%	-1.6%
Cc1cccc(NS(=O)(=O)c2cc(NC(=O)CC(=O)c3ccc([N+](=O)[O-])cc3)ccc2C)c1	5.7%	-1.0%
C/C(CC(=O)Nc1ccccn1)=N\NC(=O)c1ccncc1	-6.5%	1.8%
COc1ccc(-c2cc(C(F)F)n3ncc(C(=O)Nc4cnn(Cc5ccccc5)c4)c3n2)cc1	4.0%	1.3%
CC1(C)CC(=O)c2sc(NC(=O)c3ccccc3)nc2C1	-2.3%	1.0%
CC(C)Cc1ccccc1O	11.5%	11.4%
Cc1ccnc(NC(=O)/C=C/c2ccccc2[N+](=O)[O-])c1	-2.3%	-0.8%
NS(=O)(=O)c1ccc(-c2ccc(/C=C3\C(=O)Nc4ccccc43)o2)cc1	10.0%	-2.8%
NCCCC[C@H](NC(=O)C1CCNCC1)c1nnc(CN)o1	3.3%	0.0%

Sorted by SMILES length (falling): part of the list above.
SMILES	NS1 inh	SARS PLpro yeast
C/C=C/C(=O)Nc1cccc(C2=NOC3(C2)C[C@H](C(N)=O)N(C(=O)c2ccccc2C(=O)c2ccccc2)C3)c1 (stereo not given in full)	-6.3%	0.1%
CCn1c2ccccc2n2c(=O)c(=O)n(CC(=O)N3CCN(c4ccccc4OC)CC3)nc12	1.3%	-1.1%
Cc1ccnc(NC(=O)/C=C/c2ccccc2[N+](=O)[O-])c1	-2.3%	-0.8%
CCc1ccc(NC(=O)c2cc(Br)ccc2Br)cc1	-0.9%	0.7%

Next section
SMILES	NS1 inh	SARS PLpro yeast
Cc1ccc(C)c(CSc2nc(-c3ccco3)nc3c2c(=O)n(C)c(=O)n3C)c1	5.4%	0.1%
Cc1ccnc2ccc(P(=O)(c3ccccc3)c3ccccc3)cc12	0.1%	-0.7%
Cc1ccc2nc(N3CCCCC3)c(C=O)c(=O)n2c1	3.2%	-1.2%
CCOC(=O)CC1C(=O)NCCN1c1nc2c(C)cccn2c(=O)c1/C=C1\SC(=S)N(CC(C)C)C1=O (stereo not given)	24.1%	0.3%
COc1ccc(NC2CCCN(C(=O)CCCn3cncn3)C2)cc1 (stereo not given)	20.7%	0.5%
O=C(Oc1ccc(OC(=O)N2CCCCC2)cc1)N1CCCCC1	-1.4%	-0.4%
COc1cc(C2C(C(=O)c3ccco3)=C(O)C(=O)N2c2cc(C)on2)ccc1OCc1ccccc1 (stereo not given)	?	-9.6%
Cc1cc2c(c(=O)o1)C1O[C@](c3ccsc3)(Cc3cc(C#N)ccc31)O2	?	-4.3%[6.58 µM]
CC(C)CCc1c(O)nc(SCC(=O)N2CCCCCC2)[nH]c1=O	15.1%	0.9%
O=c1[nH]c(/C=C/c2ccc(Br)cc2)nc2c1cnn2-c1ccccc1	10.2%	1.6%
CCN1C(=NCc2cc(OC)c(OC)c(OC)c2)N[C@@H](c2cccc(F)c2)C(C(=O)OC)=C1C	2.1%	7.8%
CCOC(=O)c1ccccc1NC(=O)CN(c1ccc(OCC)cc1)S(C)(=O)=O	-3.1%	0.4%
NNC(=O)c1ccc(NS(=O)(=O)c2ccc(Br)cc2)cc1	7.4%	-0.6%
CCN(c1ccccc1)S(=O)(=O)c1ccc(C(=O)N(CCN(C)C)c2nc3c(F)cc(F)cc3s2)cc1	-0.4%	0.8%
COc1cc(-c2nnc(NC(=O)c3ccc(S(=O)(=O)N4CCOCC4)cc3)o2)cc(OC)c1OC	6.4%	-0.1%
CCCN1C(=O)/C(=C/c2c(N3CCNC(=O)C3CC(=O)OC)nc3c(C)cccn3c2=O)SC1=S (stereo not given)	4.5%	0.9%
COc1ccc([C@]23Cc4ccccc4C(O2)C2=C(CC4(CCCCC4)OC2=O)O3)cc1	14.0%	0.9%[6.58 µM]
CC(OC(=O)c1ccc(NC(=O)CC#N)cc1)C(=O)Nc1ccc(Oc2ccccc2)cc1 (stereo not given)	3.5%	?
C/C(=N\Nc1ccc(F)cc1F)c1cccs1	9.9%	-2.1%
Cc1ccc(CSCC2Nc3ccc(C(=O)N4CCN(c5cccc(C)c5)C(C)C4)cc3NC2=O)cc1 (stereo not given)	16.9%	-7.5%
O=[N+]([O-])c1ccc(N2N=C(c3ccccc3)CC2c2ccccc2O)cc1 (stereo not given)	-64.4%	-13.7%
CCC(NC(=O)COc1ccc([N+](=O)[O-])cc1)c1ccccc1 (stereo not given)	-0.8%	-1.3%
CN(C)c1c(-c2ccccc2)cc(-c2ccccc2)[nH]c1=O	-9.9%	-0.1%
Cc1ccc(NC(=O)Nc2ccc3c(c2)nc(C)n3C)cc1C	0.2%	-0.4%
Cc1ccc2nc3c(cc(C(=O)NCc4ccco4)c(=N)n3C3CCCC3)c(=O)n2c1	12.2%	1.1%
COCCn1c(SCc2cc(=O)n3cc(C)ccc3n2)nc2ccccc2c1=O	6.5%	-1.8%
